KCNQ2 enhance – KCNQ2 (rat) channel potentiation. O88943. CHO-K1 KCNQ2, FluxOR thallium flux fluorescence; active compounds read high. B-score at 10 µM. 0.54% of 310,000 active;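 active means fluorescence ratio B-score at least 3 SD of library B-scores, with initial fluorescence B-score within 3 SD, cut at about 5.3 in these data; same plate scores as AID 2156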;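 further: B-score of peak minus minimum over baseline fluorescence ratio after K+ and Tl+ stimulus; positive B-score means potentiation of KCNQ2 with more thallium influx and brighter signal; only the inactives scoring about 0 or higher are listed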
Target sequence (O88943 whole entry, looked up): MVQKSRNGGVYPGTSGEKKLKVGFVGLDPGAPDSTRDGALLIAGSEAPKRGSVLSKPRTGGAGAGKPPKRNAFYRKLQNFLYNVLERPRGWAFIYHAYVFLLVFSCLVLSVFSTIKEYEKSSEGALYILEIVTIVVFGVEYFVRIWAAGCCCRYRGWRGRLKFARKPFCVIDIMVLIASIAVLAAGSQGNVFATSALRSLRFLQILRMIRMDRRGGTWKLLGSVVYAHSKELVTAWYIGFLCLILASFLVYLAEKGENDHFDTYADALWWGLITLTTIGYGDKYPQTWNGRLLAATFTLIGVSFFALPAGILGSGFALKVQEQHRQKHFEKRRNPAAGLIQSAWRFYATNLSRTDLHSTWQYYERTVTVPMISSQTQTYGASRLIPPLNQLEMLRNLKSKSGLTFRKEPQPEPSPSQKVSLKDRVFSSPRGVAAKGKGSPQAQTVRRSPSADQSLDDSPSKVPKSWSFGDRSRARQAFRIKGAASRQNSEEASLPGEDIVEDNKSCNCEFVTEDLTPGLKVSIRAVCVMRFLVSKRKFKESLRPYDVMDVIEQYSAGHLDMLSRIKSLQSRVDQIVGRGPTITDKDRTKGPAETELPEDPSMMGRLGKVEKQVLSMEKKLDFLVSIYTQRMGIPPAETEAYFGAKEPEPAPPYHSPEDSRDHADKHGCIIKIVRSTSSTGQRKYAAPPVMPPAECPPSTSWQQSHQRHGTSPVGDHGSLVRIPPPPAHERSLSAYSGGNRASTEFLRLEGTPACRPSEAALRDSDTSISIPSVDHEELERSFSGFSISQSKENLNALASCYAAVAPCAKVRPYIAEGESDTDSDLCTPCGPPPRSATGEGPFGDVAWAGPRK
KCNQ2 enhance baseline – second read-out of KCNQ2 enhance, no call of its own (marks repeat the call); B-score; compound at 10 µM; measured here: initial fluorescence intensity artifact check;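 brightness before thallium and not channel activity; 0 = typical well and far values either way flag optical interference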
* = called active by the depositor.

smiles | KCNQ2 enhance | KCNQ2 enhance baseline
OC1CCN(c2c3c(nc4cc(-c5ccc(Cl)cc5)nn24)CCC3)CC1 | 0.96 | -1.03
COc1cccc(NC(=O)CN(C)CC(=O)Nc2ccc(C)c([N+](=O)[O-])c2)c1 | 0.59 | 0.41
COc1ccc(C(=O)NCC2CCCN2S(=O)(=O)c2cccs2)cc1 (stereo unspecified) | 1.09 | -0.3
CC(C)[C@@H](N)C(=O)N/N=C/c1ccc2ncccc2c1 | 0.07 | 2.33
CCN(CC)S(=O)(=O)c1ccc(C(=O)Nc2cccc(C)c2)cc1 | 0.07 | -0.12
CC(SCC(=O)O)c1nc2ccccc2[nH]1 (stereo unspecified) | 0.2 | -4.18
CCc1ccccc1NC(=O)Cn1nc(C(F)(F)F)cc1C1CC1 | 0.62 | -1.5
COc1ccc(NC(=O)CCS(=O)(=O)c2ccc3nc(C)sc3c2)cc1OC | 1.34 | 0.04
COC(C[C@H]1O[C@H]1C(=O)[C@@H](C)OCc1ccccc1)OC | 0.52 | -1.73
COc1ccc(NC(=O)CSC2CC(=O)N(c3ccc4c(c3)OCCO4)C2=O)cc1 (stereo unspecified) | 1.41 | -1.02
O=C(c1ccc2snnc2c1)N1CCOCC1 | 0.51 | -0.5
Cc1ccc(S(=O)(=O)Nc2nc(C)c(C(=O)Nc3ccccc3)s2)cc1 | 0.03 | -0.57
COc1cc(OC)cc(-c2nc(SCC(=O)Nc3ccccc3F)n[nH]2)c1 | 0.02 | 0.85
O=C(O)c1cccc(S(=O)(=O)Nc2ccccc2-c2ccccc2)c1 | 2.09 | -1.41
CCOC(=O)C1CCN(C(=O)CCC(=O)NNc2nc3ccccc3c3nc(C)nn23)CC1 | 1.05 | 1.57
O=C(NNC(=O)c1ccc2ncccc2c1)c1ccc(Cl)cc1 | 8.05* | -0.97*
O=C(Nc1cccc(Cl)c1)Nc1sccc1-c1nc2ccccc2s1 | 0.31 | 0.68
COc1cccc(-n2cnc3cccc(N)c32)c1 | 0.54 | -0.04
CCOc1ccc(CCNC(=O)COC(=O)C2CCN(S(=O)(=O)c3ccc(C)c(C)c3)CC2)cc1OCC | 0.68 | -0.54
CCc1cccc(NC(=O)CN(C)S(=O)(=O)c2cccc3cccnc23)c1 | 1.11 | 0.64
O=C(Nc1cccc(C(=O)O)c1)/C(=C\C=C\c1ccccc1)NC(=O)c1ccccc1 | 0.13 | 0.1
COCCn1c(SC)nnc1-c1c[nH]c2ccccc12 | 0.59 | -0.51
Cn1c(=O)c2nc(-c3ccc(Cl)cc3Cl)oc2c2ccccc21 | 0.03 | -1.08
O=C(Cn1cnc([N+](=O)[O-])c1)NC1CCCC1 | 1.69 | 1.45
Cc1ccc(/C=C2\SC(=S)N(CCCC(=O)Nc3ccc(O)cc3)C2=O)cc1 | 0.36 | -1.5
CNC(=S)N/N=C/c1c(C)nn(-c2ccccc2)c1Cl | 0.42 | -2.62
CC1=CC(C)(C)N(C(=O)CSc2ncn[nH]2)c2ccc(C)cc21 | 0.77 | 0.04
S=c1[nH]nc(-c2ccc(Cl)cc2)n1CC1CCCO1 (stereo unspecified) | 0.23 | 1.18
CCOc1cc(NC(=O)c2ccccn2)c(OCC)cc1NC(=O)c1cccc(C)c1 | 1.06 | -0.03
CCOc1cc2[nH]c(=O)n(CCCC(=O)NCc3ccco3)c(=O)c2cc1OCC | 0.85 | -0.61
COc1ccccc1-n1c(SCC(=O)O)nc2c(sc(=S)n2-c2ccccc2C)c1=O | 1.23 | 0.16
CC(C)CNS(=O)(=O)c1ccc(NC(=O)Cn2nc(-c3ccc(F)cc3)ccc2=O)cc1 | 1.87 | 0.09
COc1ccc(CCC(=O)OCC(=O)Nc2c(C)nn(-c3ccccc3)c2C)cc1 | 0.56 | 1.18
NC(=O)CC(NC(=O)Cc1cccc2ccccc12)c1ccc(NCc2cc(F)ccc2F)c([N+](=O)[O-])c1 (stereo unspecified) | 0.29 | 0.27
O=C(O)c1cccc(NC(=O)C23CC4CC(C2)CC(n2cnc(Cl)n2)(C4)C3)c1 | 0.18 | -1.8
CN(C)c1ccc(/C=N/NC(N)=S)cc1[N+](=O)[O-] | 0.32 | -1.7
Cc1ccc(-c2ccc(=O)n(CC(=O)NCCN(CC(C)C)CC(C)C)n2)cc1 | 0.08 | -0.19
C/C(CC(=O)Nc1ccc2c(c1)OCCO2)=N\NC(=O)c1ccc([N+](=O)[O-])cc1Cl | 0.54 | -0.92
COC(=O)C1=C(C)N(c2ccc(C)cc2)/C(=C/c2cccs2)C1=O | 0.67 | -0.84
N=c1n(CCN2CCCC2)c2ccccc2n1CC(O)c1ccco1 (stereo unspecified) | 0.01 | -0.49
COc1ccc(-n2c(C)cc(C(=O)CN3C(=O)C(=O)N(Cc4ccccc4)C3=O)c2C)cc1 | 0.26 | 2.2
CC(=O)Nc1ccc(S(=O)(=O)NCCC(=O)Nc2ccc(C)cn2)cc1 | 2.05 | 0.69
C=CCOC(=O)C1=C[C@H](c2coc3ccccc3c2=O)[C@@H](CCCO)[C@H](OCC)O1 | 0.05 | 1.45
Cc1cccn2c(=O)nc(SCC(=O)NCc3ccccc3)nc12 | 0.19 | 0.76
CCOCCCNC(=O)/C(C#N)=C/c1ccc(C)o1 | 0.61 | -0.01
NS(=O)(=O)c1ccc(CCNC(=S)NC2CCCCC2)cc1 | 0.86 | -0.42
C/C(=N\NC(=O)C1COc2ccccc2O1)c1ccccn1 (stereo unspecified) | 1.73 | 1.08
O=C1N(c2ccccc2)C(c2ccccc2)N2CCCN12 (stereo unspecified) | 0.83 | -0.12
COc1ccc(NC(=O)CN2CCN(CC(=O)Nc3ccc(F)cc3)CC2)cc1Cl | 0.01 | 0.02
CCCCC(=O)NC1=NC(=O)C(C)(C)S1 | 0.82 | 0.04

The results go on.
smiles | KCNQ2 enhance | KCNQ2 enhance baseline
COc1ccc(NC(=O)CN2C(=O)CSc3ccc(S(=O)(=O)N4CCCC4)cc32)cc1OC | 0.44 | -3.49
CCn1nc(C)cc1-c1n[nH]c(=S)n1N | 1.69 | 0.22
COc1ccc(OCC(=O)Nc2cccc(NC(=O)COc3ccc(OC)cc3)n2)cc1 | 0.02 | -1.61
C=CCn1c(=O)/c(=C\c2ccccn2)s/c1=C(/C#N)C(=O)NCC1CCCO1 (stereo unspecified) | 1.19 | -0.59
O=C(C(Cl)Cl)N1CCN(Cc2ccc3c(c2)OCO3)CC1 | 1.38 | -0.21
O=C(Nc1ccccc1Br)C1CC(=O)N(c2ccc3c(c2)OCCO3)C1 (stereo unspecified) | 0.36 | 0.24
CC(C)Sc1nc2ccccc2n2cnnc12 | 2.16 | 0.02
CCN(C(=O)COc1ccccc1[N+](=O)[O-])C1CCS(=O)(=O)C1 (stereo unspecified) | 1.38 | -0.01
Cc1nc(C)c(C(=O)Nc2ccc(Oc3ccccc3)cc2)o1 | 0.18 | 1.11
Cc1ccc(-c2nn(CCC(=O)O)cc2/C=C\C(=O)c2ccc(Br)cc2)cc1 | 1.6 | 0.65
COc1ccc(C2CC(C(F)(F)F)n3nc(C(=O)O)c(Cl)c3N2)cc1OC (stereo unspecified) | 0.07 | 1.02
COc1cc(C)c(Cl)cc1S(=O)(=O)NCC1CCCO1 (stereo unspecified) | 0.45 | 0.81
COc1ccccc1CNC(=O)N1CCN(c2ccccc2C)CC1 | 0.3 | -0.78
O=C(NC1CCCC1)C(c1ccc(F)cc1)N(C(=O)Cc1cccs1)c1ccc2c(c1)OCCO2 (stereo unspecified) | 0.05 | 0.42
CN(C)c1ccc(NC(=O)c2ccc3nsnc3c2)cc1 | 0.09 | 0.65
O=C(CSc1nnc2ncccn12)N1CCCCCC1 | 0.66 | 0.02
OCCN(CCO)CC(O)COc1ccc2c(c1)OCO2 (stereo unspecified) | 0.11 | 0.43
Nc1nn(S(=O)(=O)c2ccccc2)cc1-c1ccc([N+](=O)[O-])cc1 | 0.68 | -0.08
O=[N+]([O-])c1ccc2[nH]c(O)c(N=Nc3ccc(F)cc3)c2c1 | 0.34 | -0.33
COc1ccc(OC(=O)COc2ccc(Cl)cc2)cc1 | 2.04 | 0.29
CC(C)C(=O)NC(=S)Nc1ccc(S(=O)(=O)N2CCN(C)CC2)cc1 | 0.04 | -0.75
O=C(O)CCc1nc(-c2ccccc2)c(-c2ccccc2)o1 | 1.42 | 0.88
COc1cc(/C=N/NC(N)=O)cc([N+](=O)[O-])c1O | 1.43 | -1.55
CS(=O)(=O)N1CCN(c2ccccc2NC(=S)NC(=O)c2ccco2)CC1 | 0.87 | -0.02
Cn1c(=O)c2c(ncn2C)n(C)c1=O | 1.05 | 0.79

Additional results.
Each structure is followed by: KCNQ2 enhance | KCNQ2 enhance baseline
COc1cc(OC)c(OC)cc1CCC(C)NCCC(c1ccccc1)c1ccccc1 (stereo unspecified)
    0.21 | 1.37
Nc1nn(-c2ccccc2Cl)cc1-c1nn[nH]n1
    1.29 | -0.26
O=C(COc1ccc(Br)cc1)NCCCNC(=O)c1ccncc1
    0.4 | 2.08
Cc1cc(N2CCN(C)CC2)nc(=S)[nH]1
    0.13 | 0.59
CN(Cc1cccnc1)C(=O)c1cc(COc2ccc3ncccc3c2)on1
    1.41 | 0.18
COc1cccc(S(=O)(=O)Nc2cccnc2)c1
    0.09 | -0.1
N=c1n(CCO)c2ccccc2n1CCN1CCCCC1
    0.28 | 0.89
COc1ccccc1CNC(=O)COc1ccc(S(=O)(=O)N2CCCC2)cc1
    0.02 | -1.88
CCCCCn1c(=O)[nH]c2cc(C(=O)N3CCN(c4ccccc4F)CC3)ccc2c1=O
    0.32 | -0.78
Cc1nnc2c3ccccc3c(-c3ccccc3)nn12
    0.07 | -0.7
Cc1nnc(NC(=O)CSc2nccn2C)s1
    0.72 | 0.91
N#CCn1cnc2c(oc3ccccc32)c1=O
    0.83 | 0.02
CC(=O)NC1=NN(C(C)=O)C(C)(c2ccccn2)S1 (stereo unspecified)
    0.48 | -0.48
O=C(CCc1nc2ccccc2c(=O)[nH]1)Nc1ccc(Cl)c(Cl)c1
    1.79 | -0.06
COc1ccc(C(=O)Nc2ccccc2C(=O)NC(Cc2ccc(O)cc2)C(=O)NNC(=O)c2ccccc2Cl)cc1 (stereo unspecified)
    0.71 | -4.15
O=C(Nc1ccc2c(c1)OCCO2)c1cccc(Br)c1
    0.52 | -1.03
NC(=O)c1nc(-c2ccco2)nc2c1[nH]c(=O)n2-c1ccc(Cl)c(Cl)c1
    0.5 | 0.02
CCCCCCn1c(N(CC)CC)nc2c1c(=O)[nH]c(=O)n2C
    0.49 | 0.05
O=C(NCc1ccco1)C(c1cccnc1)N(C(=O)Cn1nnc2ccccc21)c1ccc(F)cc1 (stereo unspecified)
    0.6 | 1.01
CC(=O)c1cccc(NC2c3ncccc3C(=O)N2Cc2ccco2)c1 (stereo unspecified)
    0.14 | -0.16
CCCCn1c(SCC(=O)Nc2nnc(C)s2)nnc1-c1ccncc1
    0.08 | 0.33
O=C(N/N=C\c1cccc([N+](=O)[O-])c1O)C1COc2ccccc2O1 (stereo unspecified)
    2.5 | -1.41
CCOC(=O)c1ccc(NC(=O)NCc2ccn(CC)n2)cc1
    2.53 | 0.16
Cc1cc2nc(-c3cccnc3SCC(=O)NC3CC3)[nH]c2cc1C
    0.97 | -0.44
COc1ccc(-c2nnc3sc(-c4ccccc4OC)nn23)cc1
    0.36 | -0.56
Cc1c(/C=N/NC(=O)c2cccnc2)c2ccccc2n1Cc1ccccc1
    1.1 | 0.12
CC(=NCCCN(C)C)C1=C(O)c2ccccc2C1=O
    1.35 | 0.11
C1CCC2(CC1)C1=C(CCCC1)Nc1nnnn12
    0.35 | 0.01
Cc1cccc(NCC(=O)c2c(N)n(C)c(=O)n(C)c2=O)c1C
    0.44 | -1.08
CCC(C)[C@@H](N)C(=O)N/N=C/c1cccc2nccnc12 (stereo partly specified)
    0.11 | -0.04
O=S(=O)(CC(O)COc1ccccc1Cl)c1ccccc1 (stereo unspecified)
    0.6 | 1.06
COC(=O)c1c(NC(=O)CN2CCN(c3ccccc3OC)CC2)c2cc(C)ccc2n1C
    1.94 | -0.04
O=C(Nc1nncs1)c1cccc(S(=O)(=O)N2CCOCC2)c1
    0.98 | -0.01
O=C(CSc1ccccc1)Nc1ccc(S(=O)(=O)NCC2CCCO2)cc1 (stereo unspecified)
    0.82 | 0.3
COc1ccc(Cl)cc1NC(=O)CSc1nnc(CNC(=O)c2cccs2)o1
    0.41 | -1.08
COC(=O)c1ccc(/C=N/NC(=O)CNc2cccc(C)c2)cc1
    0.08 | 0.55
Cc1ccc(C)c(NC(=S)N2CCC(NC(=O)c3ccc(F)cc3)CC2)c1
    0.02 | 0.76
COCCCn1c2nc3ccccc3nc2c2c(=O)n(Cc3ccccc3Cl)cnc21
    0.9 | 2.28
O=C(Cn1c(=O)oc2ccccc21)N1CCCCC1
    0.68 | 0.79
COC(=O)c1ccc([C@H]2C=C(C(=O)O)O[C@@H](OCc3ccc(CO)cc3)C2)cc1
    0.18 | 0.01
COc1ccc2nc(SCC(=O)NC3(C#N)CCCCC3)[nH]c2c1
    1.59 | -0.19
O=C(NCCc1ccccc1)C1CCCN(C(=O)NC2CCCCC2)C1 (stereo unspecified)
    0.4 | -0.69

Only part of the results is shown; the hit share may differ from the screen's.
